CapD inh = inhibitors of Bacillus anthracis CapD enzyme | purified CapD enzyme, fluorescence intensity read-out; stronger effect = lower value; some hits fall short of the stated cut | z-score (concentration not given with the values) | 0.23% of 140,000 active | AID 492967;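 active = z-score under -4 in either of two replicates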;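 also: stock transfer was 100 nL into about 40 µL; score is relative to mean and spread of the plate; one replicate is shown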
AID504770 = growth inhibitors of E. coli YBA685 in a screen for V. cholerae RctB (chromosome II replication) inhibitors; E. coli YBA685 rctB-dependent plasmid, OD600 growth, 3 h; stronger effect = lower value; z-score (no concentration beside the values); 0.27% of 130,000 active;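 active = z-score under -2 on both plates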;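 also: wells of about 30 µL received 100 nL stock; score is relative to mean and SD of the test wells; the first replicate is given; strong numbers were not always called active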
Starred values were filed as active, the others as inactive; . = no result given; & = joins results of further samples.

Each structure is followed by: AID504770, CapD inh
> Cc1ccc(NC(=O)CSc2nc3ccccc3c(=O)n2CCc2ccc(S(N)(=O)=O)cc2)cc1Cl
→ ., -1.3
> c1ccc2cc3cnccc3cc2c1
→ -1.2, 55
> CC/C(=C\c1ccccc1)CN1CCCCC1
→ -0.3, .
> CC(C)NC(=O)/C(C#N)=C/c1ccc2c(c1)OCCO2
→ -0.9, .
> COc1ccccc1N1CCN(C(=O)CC(C)c2ccccc2)CC1 (centres undefined)
→ -0.85, 0.23
> O=C(NCc1ccco1)C(=S)N1CCOCC1
→ -0.3, -0.18
> C=C(C)CNCC1OCCc2ccccc21 (centres undefined)
→ 0, -0.03
> O=C(Oc1cccc2ccccc12)c1ccccc1Cl
→ -0.75, -1
> CC1(C)OC(=O)C(=CNCCO)C(=O)O1
→ -0.65, 0.18
> CC(Oc1ccccc1)C(=O)NCc1ccco1 (centres undefined)
→ 2.2, -0.38
> CC(Oc1ccc(-c2ccccc2)cc1)c1nnc(-c2cccs2)o1 (centres undefined)
→ -0.3, .
> Cc1cccc(C(C)C)c1NC(=O)CSc1ncnc2[nH]ncc12
→ 0.7, .
> CO/N=C/c1c(Nc2ccccc2)sc(C(=O)c2ccccc2)c1N
→ ., -0.94
> COc1cc(C2C(C#N)=C(N)Oc3n[nH]c(-c4ccc(Br)cc4)c32)cc(OC)c1OC(=O)N1CCOCC1 (centres undefined)
→ ., -0.14
> CCC(C(=O)NCc1ccc(OC)cc1OC)N1C(=O)CSc2ccc(C(C)(C)C)cc21 (centres undefined)
→ -0.2, -0.16

Some of the entries above in a different format.
compound: Cc1ccc(NC(=O)CSc2nc3ccccc3c(=O)n2CCc2ccc(S(N)(=O)=O)cc2)cc1Cl
  AID504770: . | CapD inh: -1.3
compound: c1ccc2cc3cnccc3cc2c1
  AID504770: -1.2 | CapD inh: 55
compound: O=C(NCc1ccco1)C(=S)N1CCOCC1
  AID504770: -0.3 | CapD inh: -0.18

New compounds follow:
Each structure is followed by: AID504770, CapD inh
> O=C(OCCN1C(=O)c2cccc3c(N4CCOCC4)ccc(c23)C1=O)c1cccc([N+](=O)[O-])c1
→ ., 0.07
> CC(C)CN(C(=O)C1COc2ccccc2O1)c1c(N)n(CC(C)C)c(=O)[nH]c1=O (centres undefined)
→ 1.6, .
> Nc1ccc2c(c1)C1(OCCO1)C(=O)N2
→ -0.45, .
> COc1ccc(C2C(C(=O)OC(C)C)=C(C)NC3=C2C(=O)CC(c2ccc(OC)c(OC)c2)C3)c(OC)c1 (centres undefined)
→ ., 18
> CC1(C)CC(=O)C=C(SCCS(=O)(=O)c2ccccc2)S1
→ 0.4, -0.76
> COc1ccc(C2N(S(=O)(=O)c3ccc(C)cc3)CCN2S(=O)(=O)c2ccc(C)cc2)cc1
→ ., -0.72
> Clc1ccc(-c2noc(CN3CCOCC3)n2)cc1
→ -0.05, -0.085
> Cc1ccc(S(=O)(=O)N2CCC[C@H]2C(=O)OCC(=O)N2CCc3ccccc32)cc1
→ 0.3, .
> COC(=O)C1=C(N)OC2=C(C(=O)CCC2)C12C(=O)Nc1ccccc12 (centres undefined)
→ -1.1, 0.065
> COc1cccc(-c2csc(-c3ccccn3)n2)c1
→ -1, 17
> CCCS(=O)(=O)N1N=C(c2ccc(Cl)cc2)CC1c1ccco1 (centres undefined)
→ -0.45, 0.88
> O=S(=O)(c1ccccc1)c1nc(C(c2ccccc2)c2ccccc2)oc1N1CCCCC1
→ ., 0.69
> Cc1cc(C)c2c(/N=N/N3CCCCCC3)[nH]nc2n1
→ -4*, -0.24
> CCC(=O)N1CCc2cc(S(=O)(=O)NC(C)C)ccc21
→ -0.85, -0.64
> COc1ccc(C(F)(F)F)cc1NC(=O)c1nc2nc(C)cc(C(F)F)n2n1
→ -0.4, 14

Nothing new here: entries from further up.
Each structure is followed by: AID504770, CapD inh
> O=C(OCCN1C(=O)c2cccc3c(N4CCOCC4)ccc(c23)C1=O)c1cccc([N+](=O)[O-])c1
→ ., 0.07
> CC(C)CN(C(=O)C1COc2ccccc2O1)c1c(N)n(CC(C)C)c(=O)[nH]c1=O (centres undefined)
→ 1.6, .

(further entries)
Each structure is followed by: AID504770, CapD inh
> O=C(Nc1ccc(-c2nnc3n2CCCCC3)cc1)c1ccccc1F
→ -0.5, -0.28
> Cc1nc2ccccn2c1C(=O)c1ccccc1
→ -0.25, .
> Cc1ccc(-n2c(O)c(C=NCCN3CCOCC3)c3ccccc3c2=O)cc1C
→ -0.75, .
> Cc1cccc(-n2nc3c(c2NC(=O)c2ccc(Br)o2)CS(=O)C3)c1C (centres undefined)
→ 1.2, -1.1
> COC(=O)c1c(N)sc2c1CCC2
→ 1.9, -0.41
> CCOc1ccc(C2C(C(=O)OC)=C(C)NC3=C2C(=O)CC(c2ccc(OC)c(OC)c2)C3)cc1OC (centres undefined)
→ ., 9.2
> COc1cc(OC)cc(N2CCN(C(=O)OCC3CCCCN3Cc3ccccc3F)CC2)c1 (centres undefined)
→ ., -0.23
> CC(O)(c1ccccc1)C(C)(O)c1ccccc1 (centres undefined)
→ -0.2, 0.48
> CC(C(=O)NCc1ccccc1)n1cc(S(=O)(=O)N2CCCC2)ccc1=O (centres undefined)
→ -1.7, .
> Cc1nc(C(=O)Nc2ccccc2Cl)nn1-c1cc(Cl)ccc1Cl
→ ., 0.86
> CCS(=O)(=O)N(CC(=O)Nc1sc(C)c(C)c1C(N)=O)Cc1ccc(F)cc1
→ 0.15, .
> Cc1noc(C)c1S(=O)(=O)N(c1ccc(Br)cc1F)S(=O)(=O)c1c(C)noc1C
→ -0.1, -0.67
> Cn1nccc1NC(=O)CC(CC(=O)O)c1ccccc1 (centres undefined)
→ -0.9, -0.81
> NC(=S)Nc1ccc(F)c(Cl)c1
→ 0.3, .
> COc1ccc2oc(=O)c(-c3nc4ccc(OC)cc4[nH]3)cc2c1
→ -0.7, -0.21

Whole records, looked up by structure. Order of values: AID504770 | CapD inh
CCS(=O)(=O)N(CC(=O)Nc1sc(C)c(C)c1C(N)=O)Cc1ccc(F)cc1 is entered as 0.15 | .
Cc1nc2ccccn2c1C(=O)c1ccccc1 is entered as -0.25 | .

Next records
Each structure is followed by: AID504770, CapD inh
> N#CC1=C(N)Oc2n[nH]c(-c3ccc(Cl)cc3)c2C1c1cn[nH]c1-c1ccc(F)cc1 (centres undefined)
→ ., -1.1
> CCOc1c(Br)cc(Br)cc1/C=C1/SC(=S)NC1=O
→ ., -0.48
> CC1(C)Cc2cccc(OCC(=O)Nc3ccc(S(=O)(=O)N4CCCC4)cc3)c2O1
→ 0.8, .
> CC(=O)NC1=NN(C(C)=O)C(C)(CS(=O)(=O)c2ccc(C)c(C)c2)S1 (centres undefined)
→ -0.45, .
> OCC1(CO)C2C3C4CC5C6C4C2C6C1C53 (centres undefined)
→ 0.1, -0.15
> CC1(C)SC(=S)N(/N=C/c2ccco2)C1N(O)C(=O)Nc1ccccc1 (centres undefined)
→ ., -0.91
> COC(=O)c1ccc(/C=N/NC(=O)COc2ccccc2Cl)cc1
→ ., 0.26
> CCOc1ccc(NC(=O)CSc2ccnc3c2c(=O)n(C)c(=O)n3C)cc1
→ 0.15, .
> COC(=O)c1ccc(C2N(Cc3ccccc3)CCN2Cc2ccccc2)cc1
→ 1.1, -0.53
> CCOC(=O)C1=C(O)/C(=C/c2ccccc2)SC1=Nc1ccc([N+](=O)[O-])cc1
→ ., -0.81
> O=[N+]([O-])c1ccc(-c2cc3cc(Cl)ccc3o2)cc1
→ ., 15
> O=C(COC(=O)C1CC(=O)N(Cc2ccco2)C1)c1ccc(-c2ccccc2)cc1 (centres undefined)
→ 1.6, .
> O=C(CC1CCCCC1)Nc1ccc2nc3n(c(=O)c2c1)CCCCC3
→ -1.1, -0.38
> COC(=O)Cc1cc(=O)n(C(C)(C)C)[nH]1
→ -0.6, .
> NCCC(=O)N1c2ccccc2Sc2ccc(C(F)(F)F)cc21
→ ., -0.19
> COc1ccc(S(=O)(=O)NCCSCc2cc3cccc4c3n(c2=O)CCC4)cc1
→ ., 2.7
> O=c1cc(Nc2ccccc2)c2ccccc2o1
→ -0.9, 1.3
> Cc1ccc(-c2noc(-c3cc(C(C)(C)C)nn3Cc3ccccc3)n2)cc1
→ -0.2, 10
> OCC1OC(Oc2ccccc2)C(O)C(O)C1O (centres undefined)
→ 1.2, 0.28
> COc1ccc2[nH]c3c(N(C)C)ncnc3c2c1
→ -0.35, 83
> Cc1ccccc1CNC(=O)Cn1ncc2ccccc21
→ -0.25, 0.06
> N#Cc1ccc(COC(=O)c2ccc3c(c2)NC(=O)C2CCCN32)cc1 (centres undefined)
→ 1.7, .
> CCC(Sc1nc(Nc2ccc(F)cc2)c2ccccc2n1)C(=O)NCCCOC (centres undefined)
→ ., 0.2
> COC(=O)CN(c1ccc(C)c(C)c1)S(C)(=O)=O
→ -0.85, .
> COc1ccc(C2CC(=O)C3=C(C2)OC(N)=C(C#N)C3c2cccc(Br)c2)cc1 (centres undefined)
→ ., 0.17
> Cc1ccc(NCC(=O)N/N=C/c2ccncc2)cc1
→ 1.5, .
> Cc1ccccc1N1CC(O)(c2ccc(OC(F)F)cc2)[N+]2=C1SCCC2 (centres undefined)
→ ., 0.095
> O=C(Nc1ccccc1C(=O)Nc1ccc(Br)cc1)c1ccco1
→ -2.1, -0.13
> O=C(CCCOc1ccc(Cl)cc1)N1CCOCC1
→ -0.8, 0.41
> CCCN(CCC)S(=O)(=O)c1ccc(C(=O)Nc2ccccc2-c2nc3ccccc3[nH]2)cc1
→ ., 7
> CCOc1ccc(-n2c(=O)c3c4c(sc3n(CC(=O)N(CC)CC)c2=O)CCCCC4)cc1
→ 0, -0.14
> CC1CCCCN1S(=O)(=O)c1ccc(C(=O)Nc2nc(-c3ccc4c(c3)OCO4)cs2)cc1 (centres undefined)
→ -0.25, .
> O=C(COC(=O)c1cc2ccccc2cc1O)NC1CC1
→ -0.05, .
> Cn1cc(S(=O)(=O)NC2CCCCCCC2)c(S(=O)(=O)NC2CCCCCCC2)c1
→ -0.9, 0.3
> O=C(Cn1ncc2ccsc2c1=O)N1CCCC1
→ -0.8, -0.19
> COc1ccc(CCNC(=O)Cn2cnc3c(nnn3Cc3ccc(F)cc3)c2=O)cc1OC
→ -0.45, -0.38
> Nc1nc2[nH]c(=S)[nH]c2c(=O)[nH]1
→ -0.4, 2.1
> C/C=C/Cc1c(C)nc(SCc2c(C(=O)OCC)c3cc(O)c(Br)cc3n2C)c(C#N)c1C
→ ., -1.8
> Cc1occc1-c1n[nH]c(=S)n1C
→ -1.1, .
> COc1ccc(C2C3=C(CCCC3=O)N=C3c4ccccc4C(=O)C32)cc1 (centres undefined)
→ 1.6, -0.34
> CC1(C)CC2(CC(C)(c3csc(Nc4ccccc4)n3)OC2=O)C(=O)O1 (centres undefined)
→ ., -0.22
> CCCc1c(C(=O)O/N=C/c2ccc(C#N)cc2)cnn1-c1ccccc1
→ -0.4, -0.13
> O=C(CSc1ccccc1C(=O)Nc1nccs1)NCc1ccco1
→ -0.4, .
> CCN1C(=O)/C(=c2/sc3nc4ccccc4n3c2=O)c2ccccc21
→ 0.75, 0.4
> COc1cccc(C(=O)O)c1OCC(=O)O
→ -0.6, -0.34
> CCOC(=O)c1sc2nc(N3CCOCC3)c3c(c2c1N)CCN(C)C3
→ ., 19
> CC(=O)OCC(=O)[C@@]1(OC(C)=O)[C@@H](C)C[C@H]2[C@@H]3C[C@H](F)C4=CC(=O)C=C[C@]4(C)[C@@]3(F)[C@@H](O)C[C@@]21C
→ ., -0.7
> CCOC(=O)c1ccc(Nc2ncnc3[nH]ncc23)cc1
→ 1.2, 14
> OCCN1CCN(c2nc(-c3ccccc3)c3cc(Br)ccc3n2)CC1
→ 0.4, 0.6
> Cc1ccc(F)cc1S(=O)(=O)N1CCN(c2ncccn2)CC1
→ ., 3.7
> CCN(CC)S(=O)(=O)c1ccc(C(=O)NCc2ccc3c(c2)cc(C)n3C)cc1
→ 1, .
> COC(=O)c1sc2nc(N)c(C#N)c(-c3ccc(Cl)cc3)c2c1N
→ -0.7, 0.17
> CCOC(=O)c1c(CN2CCCC2)oc2ccc(OC)cc12
→ 1.3, 1.4
> N#CC1=C(SCC(=O)NCc2ccccc2)NC2=C(C(=O)CCC2)C1c1ccc2c(c1)OCO2 (centres undefined)
→ ., 5.1
> CCc1cc(C(=O)Cc2cnc[nH]2)c(O)cc1O
→ -1.1, -0.77
> CCOC(=O)C1=C(CSc2nc(-c3cccs3)ccc2C#N)OC(N)=C(C#N)C1c1ccc(C#N)cc1 (centres undefined)
→ ., 4
> CCCS(=O)(=O)c1c(S(=O)(=O)CCC)c2c(C(N)=O)cccn2c1C(=O)c1ccc(F)cc1
→ ., -0.45
> c1ccc(Nc2nc(-c3cccs3)cs2)cc1
→ -0.3&0.3, -0.48&-0.21
> Cn1c(CC(=O)Nc2ccc(Cl)cc2)c(Sc2ccccc2)c2ccccc21
→ ., -0.21
> CCS(=O)(=O)n1nc(-c2ccco2)nc1N
→ 1.9, .

The listing continues.
Each structure is followed by: AID504770, CapD inh
> Cn1c(SCc2nccn2Cc2ccc(Cl)cc2)nnc1C(F)(F)F
→ -0.45, 0.17
> CC(Oc1ccc(Cl)cc1)/C(N)=N/O (centres undefined)
→ -0.25, .
> Cc1ccc(CNC(=O)c2ccc3c(Cl)c4c(nc3c2)CCCC4)o1
→ -0.3, 0.12
> COc1cc(OC)nc(C2CCN(C(=O)C(c3ccccc3)c3ccccc3)CC2)n1
→ ., 0.11
> CCCCn1c(COc2ccccc2)nc2ccccc21
→ -0.25, .
> CCNC(=O)CN1C(=O)CSc2nc(C)cc(C)c21
→ 0.75, 0.74
> O=C(CNc1ccc(S(=O)(=O)N2CCCC2)cc1)N1CCN(S(=O)(=O)c2ccccc2)CC1
→ -0.25, .
> CCC1CCC(N2CCN(c3ccc(Cl)cc3)CC2)CC1 (centres undefined)
→ -0.25, -0.06
> COc1ccc(C2N3CC(C)(C)CN23)cc1 (centres undefined)
→ 0.3, 1
> O=C(c1ccc(Br)cc1)C1CC1c1ccc(Cl)cc1Cl (centres undefined)
→ ., 0.9

Some of the compounds tested. The share of hits here may be higher or lower than overall.
